Screening results as filed in PubChem BioAssay.
STK33 kinase inh: inhibitors of human STK33 kinase; purified STK33, MBP phosphorylation, ADP-Glo luminescence; inhibition, % at 10 µM; actives 0.073% (n = 320,000);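 active = inhibition at or above 25%, using the most active replicate where run in duplicate; inactive = inhibition below 25%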
Target sequence (Q9BYT3 whole entry, looked up): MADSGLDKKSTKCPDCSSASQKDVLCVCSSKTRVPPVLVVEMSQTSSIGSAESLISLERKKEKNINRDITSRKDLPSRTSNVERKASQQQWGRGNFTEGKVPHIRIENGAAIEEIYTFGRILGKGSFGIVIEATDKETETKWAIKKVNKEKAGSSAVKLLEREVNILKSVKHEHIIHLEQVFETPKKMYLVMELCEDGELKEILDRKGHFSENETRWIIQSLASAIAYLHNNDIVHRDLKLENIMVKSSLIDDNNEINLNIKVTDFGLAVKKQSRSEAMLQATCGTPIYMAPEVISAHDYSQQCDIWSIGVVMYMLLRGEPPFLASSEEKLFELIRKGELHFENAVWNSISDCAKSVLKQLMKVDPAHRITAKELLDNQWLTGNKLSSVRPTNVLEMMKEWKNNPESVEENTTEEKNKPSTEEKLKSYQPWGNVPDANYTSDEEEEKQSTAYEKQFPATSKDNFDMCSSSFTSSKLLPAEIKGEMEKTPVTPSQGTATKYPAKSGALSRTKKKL
Active calls of the source: *. These rows are one share of the data, and most or all hits are left out here.

Screening CN1CCN(Cn2cc(/C=C/C(=O)c3ccccc3)c3ccccc32)CC1 returned STK33 kinase inh 2.8.
Screening CC(=O)Nc1ccc(S(=O)(=O)N2CCC(C(=O)NC3CC3)CC2)cc1 returned STK33 kinase inh -2.2.
Screening N#CCCCSc1nnnn1-c1cccc(Cl)c1 returned STK33 kinase inh 0.7.
CN1CCN(c2nc3c(c(=O)[nH]c(=O)n3C)n2CCSc2nc3ccccc3s2)CC1 was read as STK33 kinase inh -0.8.
Screening O=C(CCN1C(=O)C2CCCCC2C1=O)N1CCN(S(=O)(=O)c2cccc(F)c2)CC1 (configuration not stated) returned STK33 kinase inh -0.3.
`C=CCN(c1ccccc1Cl)S(=O)(=O)c1cccc(C(=O)NCCc2ccc(OC)cc2)c1` gave STK33 kinase inh 0.7.
CCCOc1ccc(C2C(C(=O)c3ccc(C)o3)=C(O)C(=O)N2Cc2cccnc2)cc1 (configuration not stated) was read as STK33 kinase inh 0.0.
`COC(=O)[C@@]1(Cc2ccc(OC)cc2)[C@H]2c3cc(C(=O)N(C)C)n(Cc4c(CO)[nH]cc(C)c4=O)c3C[C@H]2CN1C(=O)c1ccccc1` gave STK33 kinase inh -0.1.
Screening CCn1c(SCC(N)=O)nc2sc3c(c2c1=O)CCCC3 returned STK33 kinase inh -1.3.
COc1ccc(S(=O)(=O)N(CC(=O)N2CCN(C)CC2)c2ccccc2)cc1OC was read as STK33 kinase inh -0.8.
`CCOC(=O)C(=O)c1csc(NC(=O)CCSc2ccc(C)cc2)n1` gave STK33 kinase inh -1.5.
For COc1cccc(CNC(=O)c2ccc(CS(=O)(=O)Cc3ccc(C)cc3)o2)c1 the results were STK33 kinase inh -0.2.
Cc1ccc(-c2csc(NCCn3c(-c4ccncc4)nc4ccccc43)n2)cc1 was read as STK33 kinase inh -0.2.
Screening Cc1ccc(-c2cc(C(=O)Nc3ccc(S(=O)(=O)Nc4ncccn4)cc3)c3ccccc3n2)cc1 returned STK33 kinase inh -1.5.
`Nc1ccccc1CNc1nc(NCCO)nc2c1ncn2CCN1CCOCC1` gave STK33 kinase inh 0.1.
For CCc1cccc(C)c1NC(=O)COC(=O)Cn1c(C)csc1=O the results were STK33 kinase inh -2.9.
`CC(=O)N1CCC(=NNc2ccnc3cc(Cl)ccc23)CC1` gave STK33 kinase inh 0.4.
For O=C(CP(=O)(c1ccccc1)c1ccccc1)Nc1cccc(CP(=O)(c2ccccc2)c2ccccc2)c1 the results were STK33 kinase inh -1.4.
Screening NC(CSCc1cccc(Br)c1)C(=O)O (configuration not stated) returned STK33 kinase inh 0.1.
COc1ccc(CNc2nc(-c3cccnc3)nn2S(C)(=O)=O)cc1 was read as STK33 kinase inh -1.0.
Screening COc1ccc(OC)c(CNC(=O)c2cc(=O)[nH]c3ccc(S(=O)(=O)N4CCCC4)cc23)c1 returned STK33 kinase inh 0.4.
For CN1C(=O)CC(N2CCN(C(=O)c3ccccc3)CC2)C1=O (configuration not stated) the results were STK33 kinase inh -0.5.
O=C(O)C1C2C=CC(O2)C1C(=O)Nc1ccc(S(=O)(=O)N2CCc3ccccc32)cc1 (configuration not stated) was read as STK33 kinase inh -0.9.
`CSc1nc(O)c(C2OC(=O)c3ccccc32)c(=O)[nH]1` (configuration not stated) gave STK33 kinase inh -0.2.

2 entries picked at random from those above, as already listed:
Screening NC(CSCc1cccc(Br)c1)C(=O)O (configuration not stated) returned STK33 kinase inh 0.1.
COc1ccc(CNc2nc(-c3cccnc3)nn2S(C)(=O)=O)cc1 was read as STK33 kinase inh -1.0.

Continued.
Screening O=C(NC(Cc1ccccc1)C(=O)O)/C(=C\c1ccc([N+](=O)[O-])cc1)NC(=O)c1ccco1 (configuration not stated) returned STK33 kinase inh -2.1.
For CC(OC(=O)CCN=C1NS(=O)(=O)c2ccccc21)C(=O)c1ccccc1 (configuration not stated) the results were STK33 kinase inh -0.1.
Cc1ccc2cc(CCNS(=O)(=O)c3ccc(Cl)cc3)c(=O)[nH]c2c1C was read as STK33 kinase inh -1.2.
Screening O=C(CSc1nccn1-c1ccc(Cl)cc1)Nc1ccc2c(c1)OCO2 returned STK33 kinase inh -0.9.
`Cc1ccc(NC(=O)c2sc(Cl)nc2C)c(C)c1` gave STK33 kinase inh -2.1.
`CC(=O)Nc1nonc1-c1nc2ccccc2n1Cc1ccccn1` gave STK33 kinase inh -1.9.
CCC(C)NC(=O)CCn1c(=O)c2cccn2c2ccc(F)cc21 (configuration not stated) was read as STK33 kinase inh 0.9.
COc1ccc(CNc2ncc(-c3ccccc3)n2C)cc1 was read as STK33 kinase inh -0.8.
`COc1ccc(C(=O)COC(=O)C2CCCN2C(=O)C23CC4CC(CC(C4)C2)C3)cc1` (configuration not stated) gave STK33 kinase inh -2.0.
O=C(NC(=S)Nc1ncccn1)c1ccc(Cl)cc1Cl was read as STK33 kinase inh -1.2.
CCC1CN(C(=O)N2CCC(C(=O)Nc3ccccc3OC)CC2)c2ccccc2O1 (configuration not stated) was read as STK33 kinase inh -1.0.
`COC(=O)CCCC(=O)N1CCCC(CCC(=O)NCc2ccc(F)c(F)c2)C1` (configuration not stated) gave STK33 kinase inh 0.2.
COC(=O)C(C)Sc1n[nH]c(=S)s1 (configuration not stated) was read as STK33 kinase inh -4.0.
`Cc1ccc(S(=O)(=O)Oc2ccc(C(c3c(C)[nH][nH]c3=O)c3c(C)[nH][nH]c3=O)cc2)cc1` gave STK33 kinase inh -0.4.
`CC(C)C(=O)c1cn(CC(=O)NCc2ccco2)c2ccccc12` gave STK33 kinase inh 1.0.
`O=C(Nc1ccccc1N1CCOCC1)c1ccc2c(c1)OCO2` gave STK33 kinase inh 0.5.
For c1ccc(C2CC(c3ccccc3)C(c3ccccc3)N2)cc1 (configuration not stated) the results were STK33 kinase inh -0.5.
For O=c1c2cc(Cl)ccc2[nH]c(=S)n1Cc1cccs1 the results were STK33 kinase inh 0.1.
For COC(=O)CC1C(=O)NCCN1C(=O)CSc1nc2ccc([N+](=O)[O-])cc2s1 (configuration not stated) the results were STK33 kinase inh 0.9.
O=C1N=C(N2CCN(c3ccccc3)CC2)SC1Cc1ccccc1 (configuration not stated) was read as STK33 kinase inh -1.3.
Screening CN(C)S(=O)(=O)c1cccc(NC(=S)NCCCn2ccnc2)c1 returned STK33 kinase inh -4.2.
Clc1ccc(-c2ccccc2)nn1 was read as STK33 kinase inh -0.3.
Cc1cc(C)c(S(=O)(=O)N2CCN(S(=O)(=O)N3CCCCCC3)CC2)c(C)c1 was read as STK33 kinase inh 1.1.
For COC(=O)c1c(C(=O)OC)c(-c2ccc(Br)cc2)n2c1CS(=O)C2 (configuration not stated) the results were STK33 kinase inh 0.2.
For C=C(C)C(=O)Nc1cccc(C2=NOC3(C2)C[C@@H](C(N)=O)N(C(=O)/C=C/CC)C3)c1 (some centres not stated) the results were STK33 kinase inh -0.7.
For CC(C)Oc1ccc(C(=O)NC2CCSc3ccccc32)cc1 (configuration not stated) the results were STK33 kinase inh -0.2.
Cc1[nH]c2ccccc2c1-c1nc(N)sc1C was read as STK33 kinase inh -1.5.
CCOC(=O)c1ccccc1NC(=O)c1n[nH]c(=O)c2ccccc12 was read as STK33 kinase inh 0.5.
`COc1ccccc1/C=N/n1c(C)nnc1-n1nc(C)cc1C` gave STK33 kinase inh -1.9.
`Cc1cccc(C(=O)NCC(=O)OCC(=O)c2ccc(Cl)s2)c1` gave STK33 kinase inh -0.8.
Screening CC(=O)Nc1cc2nc(C)n(Cc3ccc([N+](=O)[O-])cc3)c2nc1C returned STK33 kinase inh 0.0.
For CCOC(=O)C1CCN(C(=O)CSC2=NCCS2)CC1 the results were STK33 kinase inh -2.3.
`Nc1ccc(CNc2ncn[nH]2)cc1` gave STK33 kinase inh -1.2.
For CCc1nn(CC(=O)NCCCN(C)C2CCCCC2)c(=O)c2cc3occc3n12 the results were STK33 kinase inh -2.8.
O=C(Nc1ccc(Br)cc1)c1cccc(OC(=S)N2CCOCC2)c1 was read as STK33 kinase inh -0.1.
COc1ccc(C(CNC(=O)c2cccc(NS(=O)(=O)c3ccc(C)c(F)c3)c2)N2CCCC2)cc1 (configuration not stated) was read as STK33 kinase inh 0.1.
O=C(Nc1ccc(CN2CCS(=O)(=O)CC2)cc1)c1ccc(F)cc1 was read as STK33 kinase inh -0.7.
CCc1cc(CNC(=O)CC2C(=O)NCCN2Cc2ccccc2C(F)(F)F)on1 (configuration not stated) was read as STK33 kinase inh -2.9.
`O=C(CN1CCCCCC1)NCC1CCCO1` (configuration not stated) gave STK33 kinase inh -0.8.
COc1ccc(-c2c(NC(=O)c3ccco3)oc3c(C)cccc3c2=O)cc1 was read as STK33 kinase inh 2.3.
For CSc1nc(-c2ccccc2)[nH]c(=S)c1C(C)=O the results were STK33 kinase inh -1.4.
For O=C(NNc1ncccc1-n1cccc1)c1ccc(Cl)cc1 the results were STK33 kinase inh 0.7.
COC(=O)c1cc(S(=O)(=O)NC2CCN(Cc3ccccc3)CC2)cn1C was read as STK33 kinase inh -7.3.
For CC1CCN(c2nc3nonc3nc2N2CCC(C)CC2)CC1 the results were STK33 kinase inh -0.6.
Screening CCc1cc2ccc(C)cc2nc1SCC(=O)Nc1cc(OC)c(OC)cc1C(=O)O returned STK33 kinase inh 0.8.
`COc1ccc(NC(=O)c2cc([N+](=O)[O-])nn2Cc2ccccc2)c(C)c1` gave STK33 kinase inh -0.2.
`CN(Cc1nc2ccccc2c(=O)[nH]1)Cc1cc(=O)oc2ccc3ccccc3c12` gave STK33 kinase inh -0.3.
Screening CC(C)(C)c1n[nH]c2c1CCCC2 returned STK33 kinase inh -0.7.

17 structures out of the list, sorted by formula weight, rising:
Screening CC(C)(C)c1n[nH]c2c1CCCC2 returned STK33 kinase inh -0.7.
`Nc1ccc(CNc2ncn[nH]2)cc1` gave STK33 kinase inh -1.2.
`O=C(CN1CCCCCC1)NCC1CCCO1` (configuration not stated) gave STK33 kinase inh -0.8.
For CSc1nc(-c2ccccc2)[nH]c(=S)c1C(C)=O the results were STK33 kinase inh -1.4.
`COc1ccccc1/C=N/n1c(C)nnc1-n1nc(C)cc1C` gave STK33 kinase inh -1.9.
For O=C(NNc1ncccc1-n1cccc1)c1ccc(Cl)cc1 the results were STK33 kinase inh 0.7.
For CCOC(=O)C1CCN(C(=O)CSC2=NCCS2)CC1 the results were STK33 kinase inh -2.3.
Screening CC(=O)Nc1cc2nc(C)n(Cc3ccc([N+](=O)[O-])cc3)c2nc1C returned STK33 kinase inh 0.0.
`Cc1cccc(C(=O)NCC(=O)OCC(=O)c2ccc(Cl)s2)c1` gave STK33 kinase inh -0.8.
O=C(Nc1ccc(CN2CCS(=O)(=O)CC2)cc1)c1ccc(F)cc1 was read as STK33 kinase inh -0.7.
COc1ccc(-c2c(NC(=O)c3ccco3)oc3c(C)cccc3c2=O)cc1 was read as STK33 kinase inh 2.3.
COC(=O)c1cc(S(=O)(=O)NC2CCN(Cc3ccccc3)CC2)cn1C was read as STK33 kinase inh -7.3.
`CN(Cc1nc2ccccc2c(=O)[nH]1)Cc1cc(=O)oc2ccc3ccccc3c12` gave STK33 kinase inh -0.3.
For CCc1nn(CC(=O)NCCCN(C)C2CCCCC2)c(=O)c2cc3occc3n12 the results were STK33 kinase inh -2.8.
CCc1cc(CNC(=O)CC2C(=O)NCCN2Cc2ccccc2C(F)(F)F)on1 (configuration not stated) was read as STK33 kinase inh -2.9.
Screening CCc1cc2ccc(C)cc2nc1SCC(=O)Nc1cc(OC)c(OC)cc1C(=O)O returned STK33 kinase inh 0.8.
COc1ccc(C(CNC(=O)c2cccc(NS(=O)(=O)c3ccc(C)c(F)c3)c2)N2CCCC2)cc1 (configuration not stated) was read as STK33 kinase inh 0.1.

(continued)
For COc1ccc(-n2c(O)c(/C=N/n3cnnc3)c3ccccc3c2=O)cc1 the results were STK33 kinase inh -1.1.
Screening O=C(CN1CCN(S(=O)(=O)c2ccccc2)CC1)NCc1ccccc1 returned STK33 kinase inh -1.0.
For CCc1ccc(OCC(=O)N2c3ccccc3CCc3ccccc32)cc1 the results were STK33 kinase inh -0.8.
`Cc1n[nH]c(=O)c2c(NC(=O)COC(=O)c3ncc(Cl)c(Cl)c3Cl)oc(C)c12` gave STK33 kinase inh -0.2.
CCn1c(=O)c2c(nc3n2CCN3c2ccccc2)n(C)c1=O was read as STK33 kinase inh -1.1.
`CC(=O)Nc1ccc(N(C(=O)Cc2cccs2)C(C(=O)NC2CCCC2)c2ccncc2)cc1` (configuration not stated) gave STK33 kinase inh -1.0.
Screening Cc1ccc(S(=O)(=O)c2c(COC(=O)c3ccccc3Cl)c(-c3ccccc3)nn2C)cc1 returned STK33 kinase inh -1.6.
Screening COc1ccc(O)c(-c2c(-c3ccc(Cl)cc3)n[nH]c2C)c1 returned STK33 kinase inh 0.5.
Screening CC(C)C(NS(=O)(=O)c1cc(C(=O)O)ccc1Cl)C(=O)O (configuration not stated) returned STK33 kinase inh -1.1.
CCn1cc(C(=O)N[C@@H](C)C(=O)NCCO)c(=O)c2cc3c(cc21)OCO3 was read as STK33 kinase inh 0.6.
For O=C(Nc1c(Cl)ccc2nsnc12)c1ccco1 the results were STK33 kinase inh 0.4.
Screening O=C(Nc1cccnc1)c1ccccc1Oc1ccccc1 returned STK33 kinase inh 0.1.
`CC(=O)Nc1ccc(NC(=O)C(C)n2nc(C)c([N+](=O)[O-])c2C)cc1` (configuration not stated) gave STK33 kinase inh 3.2.
Screening COc1ccc(C2CC(=O)C3=C(C2)Nc2ncnn2C3c2ccccc2)cc1 (configuration not stated) returned STK33 kinase inh 0.0.
`c1ccc([C@H]2CN3CCSC3=N2)cc1` gave STK33 kinase inh 0.8.
For COC(=O)c1c(/N=C/NOCc2ccc(Cl)cc2)sc2c1CCN(c1ncc(C(F)(F)F)cc1Cl)C2 the results were STK33 kinase inh -1.8.
`CS(=O)(=O)N1CCN(c2ccc([N+](=O)[O-])c(NCc3ccc(Cl)cc3)c2)CC1` gave STK33 kinase inh 0.2.
Screening O=C(CCn1c(SCC(=O)c2ccccc2)nc2ccccc2c1=O)NCc1ccc(F)cc1 returned STK33 kinase inh 0.0.
Screening Cc1ccc2c(c1)CN1CN2Cc2cc(C)ccc21 returned STK33 kinase inh 1.2.
`Cc1ccc(SCC(=O)NCc2ccccc2C)cc1` gave STK33 kinase inh -2.0.
`CCOC(=O)C1(CCCc2ccccc2)CCN(C(=O)c2cncs2)CC1` gave STK33 kinase inh 0.3.
Screening CCCCCCCCS(=O)c1sc2nc3c(cc2c1N)CCCC3 (configuration not stated) returned STK33 kinase inh 0.3.
Screening CC(Oc1ccc(Cl)cc1)c1ccn[nH]1 (configuration not stated) returned STK33 kinase inh -0.6.
